Source: PubChem BioAssay
T cruzi repl: T. cruzi replication inhibition; T. cruzi beta-gal in NIH3T3, luminescence, 90 h; inhibition, % (test concentration not listed); 300,000 compounds, 1.4% hits;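 active = mean inhibition across valid replicates above about 55%, limit read from the data; inconclusive = mean below that limit but half or more replicates reach it; inactive = mean below it, under half of replicates reach it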;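 also: signal also drops with host cell toxicity which is not excluded here; 0% = plate median of DMSO wells and 100% = zero luminescence signal; higher percent means less beta-gal luminescence so fewer parasites; stock transfer was 50 nL into about 50 µL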
LANA-H2B inh: blocks KSHV LANA binding to histone H2A/H2B. 320,000 compounds, 0.6% hits. Q9QR71. AID 2629. inhibition, % (concentration not given with the values). cell-free LANA-H2A/H2B peptide, fluorescence polarization; in the data active = inhibition mostly above about 10%, no sharp cut-off; inactive = mostly below about 6.7%;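 also: stock transfer was 7.5 nL into about 10 µL; 0% = median of vehicle wells and 100% = median of positive control wells; one replicate is shown; the record names a cut of 25% in any replicate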
Target sequence (Q9QR71 whole entry, looked up): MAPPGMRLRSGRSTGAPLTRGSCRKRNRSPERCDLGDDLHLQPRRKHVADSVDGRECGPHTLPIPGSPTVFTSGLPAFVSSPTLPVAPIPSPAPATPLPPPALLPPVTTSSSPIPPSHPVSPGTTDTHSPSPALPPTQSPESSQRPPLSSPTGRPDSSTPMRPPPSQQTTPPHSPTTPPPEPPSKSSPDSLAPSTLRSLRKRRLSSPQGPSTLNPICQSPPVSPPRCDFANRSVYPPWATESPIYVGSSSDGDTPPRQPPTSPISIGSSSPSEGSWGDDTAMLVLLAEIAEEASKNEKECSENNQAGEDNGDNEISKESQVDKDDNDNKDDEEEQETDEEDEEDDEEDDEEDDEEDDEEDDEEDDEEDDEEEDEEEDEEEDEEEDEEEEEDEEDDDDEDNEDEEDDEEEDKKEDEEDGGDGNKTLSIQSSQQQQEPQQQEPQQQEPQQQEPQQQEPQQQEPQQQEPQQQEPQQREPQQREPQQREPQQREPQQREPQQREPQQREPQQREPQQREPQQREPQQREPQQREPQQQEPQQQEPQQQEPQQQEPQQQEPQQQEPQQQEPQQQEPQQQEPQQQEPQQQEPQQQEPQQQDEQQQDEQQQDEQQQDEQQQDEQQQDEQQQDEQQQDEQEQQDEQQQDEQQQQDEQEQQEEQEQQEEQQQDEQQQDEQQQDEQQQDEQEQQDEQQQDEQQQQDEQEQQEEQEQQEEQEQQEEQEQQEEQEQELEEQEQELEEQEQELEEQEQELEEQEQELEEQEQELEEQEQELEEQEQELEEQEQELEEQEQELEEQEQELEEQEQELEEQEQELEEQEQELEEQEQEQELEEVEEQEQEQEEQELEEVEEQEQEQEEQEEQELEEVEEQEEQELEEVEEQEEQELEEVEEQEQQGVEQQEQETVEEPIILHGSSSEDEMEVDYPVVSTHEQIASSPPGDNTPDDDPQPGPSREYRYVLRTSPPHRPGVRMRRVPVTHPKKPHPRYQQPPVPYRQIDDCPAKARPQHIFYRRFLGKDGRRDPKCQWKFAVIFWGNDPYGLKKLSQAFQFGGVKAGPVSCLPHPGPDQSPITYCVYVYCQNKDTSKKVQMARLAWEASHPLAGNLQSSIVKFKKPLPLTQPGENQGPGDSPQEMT
RanGTP-Imp inh: disruptors of Ran-importin-beta complex formation – biochemical, FRET, CFP-Ran, YFP-importin-beta, homogeneous, primary screen; cell-free CFP-Ran/YFP-importin-beta FRET ratio; inhibition, % (no concentration beside the values); 300,000 compounds, 1.1% hits;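 active = most replicates above 15%; inconclusive = exactly half above 15%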;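 also: 0% = DMSO wells and 100% = Ran loaded with GDP instead of GTP; wells of about 40 µL received 100 nL stock; the first replicate is given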
A1 inh: inhibitors of the anti-apoptotic protein A1, read as caspase activation; AID 2462; 330,000 compounds, 0.066% hits; MEF A1-2A-BIM cells, Caspase-Glo 3/7 luminescence, 3 h; percent of clofoctol response, vehicle zero; caspase activation, % (no concentration beside the values);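 active = over half of replicate activation scores above 10%, or exactly half above 10 with the replicate mean above 10; inconclusive = replicate mean below 10 yet half the replicates above 10; inactive = over half of replicates below 10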;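 also: wells of about 30 µL received 50 nL stock; many hits fall short of the cut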
Vif A3G: HIV-1 Vif–A3G interaction blockers – biochemical, TR-FRET, GST-Vif 1-94, biotin-A3G peptide, dose response retest, primary screen (AID 1117319); TR-FRET GST-Vif / biotin-A3G peptide binding; higher % means a stronger effect; test concentration not given here; strong numbers were not always called active; 260,000 compounds, 0.57% hits; inhibition, %; hits with a dose series show IC50 in µM;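 active = above the screen mean plus three standard deviations and confirmed in dose response; inconclusive = results disagree or hit not tested in dose response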;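 also: Vif residues 1-94 fused to GST binding biotinylated APOBEC3G peptide 110-148; 0% = full assay without inhibitor and 100% = GST in place of GST-Vif; retest series ran down from 100 µM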
Calb FLC: C. albicans growth modulation with fluconazole | C. albicans CaCi-2 (fluconazole-resistant clinical isolate) + fluconazole, Alamar Blue growth, 48 h | 300,000 compounds, 0.57% hits | AID 1979 | growth inhibition, % (no concentration beside the values);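 active = most replicates above 75%; inconclusive = exactly half above 75%; inactive = most below 75%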;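 also: all wells also contain fluconazole at 8 µg/ml as a sub-toxic cotreatment; 0% = median of DMSO wells and 100% = median of geldanamycin control wells; wells of about 8 µL received 7.5 nL stock; the first replicate is given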
AF4-AF9 inh: inhibitors of human MLL-AF4/AF9 interaction | P42568 | AlphaScreen, biotin-AF4 peptide binding to FLAG-AF9 | inhibition, % at 10 µM | 350,000 compounds, 0.47% hits | AID 651704;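 active = every replicate reaching a set inhibition limit, whatever the replicate mean, cut at about 25% in these data; inconclusive = mean inhibition reaches that limit but some replicates miss it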;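 also: 0% = plate neutral control median and 100% = total signal loss; the record names both 10 and 1 µM as test concentration; the first replicate is given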
Beta apoptosis: blocks beta cell apoptosis | INS-1E cytokine-induced death, ATP luminescence, 48 h; percent of positive-control rescue, neutral wells zero | protection from apoptosis, % (no concentration beside the values) | 300,000 compounds, 0.8% hits;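 active = all replicates at 75% or more, or half of them and the mean; inconclusive = half reach 75% but not the mean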;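 also: 0% = cytokine-treated negative control wells and 100% = positive control rescue; higher means more ATP so stronger rescue from cytokine killing; wells of about 40 µL received 100 nL stock; the first replicate is given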
An asterisk follows results filed as active; i = inactive; ? = inconclusive; . = not tested or not shown.

SMILES	T cruzi repl	LANA-H2B inh	RanGTP-Imp inh	A1 inh	Vif A3G	Calb FLC	AF4-AF9 inh	Beta apoptosis
NC(=O)CSc1nnc2sc3ccccc3n12	-6	-0.4	0.7	?	7%	-11	.	-8
c1ccc(Oc2ccc(-c3ccnc4nc(N5CCOCC5)nn34)cc2)cc1	12	1.3	-2.0	-1.4	-29%	24	-1.8	.
Oc1ccc(Cl)cc1-c1cc(-c2ccccc2Cl)[nH]n1	9	-3.1	-1.3	0.0	2%	-8	.	4
OCCN(CCCn1c(C(F)(F)F)nc2ccccc21)c1nc(CN2CCCCC2)cs1	-4	-2.3	-2.8	0.4	.	3	1.8	-6
NC(=O)C1CCN(C(=O)c2cc(-c3ccc(Cl)cc3)nc3ccccc23)CC1	.	-3.8	.	-0.6	-4%	.	0.2	-3
Cc1ccc(N(O)C(=O)NCCCCNC(=O)N(O)c2ccc(C)cc2)cc1	-11	-2.6	7.2	0.8	1%	-2	-2.7	-9
Cc1ccc(Sc2c(C#N)c(-c3ccccc3)nn2C)cc1	-13	-6.2	1.6	0.1	3%	0	.	3
CCC1C(=O)N=C(SCC(=O)Nc2ccc(C(=O)OC)cc2)NC1=O (stereo not drawn)	-17	-0.6	-1.0	.	4%	1	.	3
Cc1csc(NC(=O)CSc2nnc(-c3cccnc3)o2)n1	-6	6.1	-3.4	0.4	.	1	-2.0	-15
COC(=O)c1sc(NC(=O)/C=C/c2ccc(C)o2)nc1C	-19	0.4	5.9	-1.3	21%	-17	-0.8	.
Cn1ccc(C(=O)OCC(=O)Nc2ccccc2Cl)n1	0	.	2.2	.	.	0	-1.6	.
CN1C(=O)c2ccc(C(=O)NCc3ccccc3)cc2C1=O	-17	5.2	-1.5	0.2	1%	0	.	-1
CCOC(=O)c1cn2nc(Oc3ccc(OC)cc3)ccc2n1	-19	-2.3	0.2	-0.6	-1%	-1	.	-2
CN(C)CCCn1c(SCC(=O)Nc2sc3c(c2C#N)CCCC3)nnc1-c1ccncc1	-1	1.9	3.6	-0.7	9%	9	-31	1
Cc1cccc(NC(=O)NC2CCCCCCC2)c1	.	3.1	.	-1.4	-5%	124*	-1.2	0
O=C1C2C3C=CC(CC3)C2C(=O)N1/N=C/c1ccc(O)c(O)c1 (stereo not drawn)	-6	0.1	0.3	-0.5	.	-4	-3.0	-21
COc1ccc(-c2nc(NC(=O)c3n[nH]c(=O)c4ccccc34)sc2C)cc1	7	0.6	22*	6.7*	-1%	-6	0.0	20
COC(=O)CNC(=O)C(CCSC)NC(C)=O (stereo not drawn)	2	-1.3	3.9	-0.4	1%	6	-2.8	-4
Cc1ccc(OCC(O)CN2CCOCC2)cc1C (stereo not drawn)	5	0.5	0.3	-1.2	.	5	-3.8	-3
Cn1cc(C(F)(F)F)nc1-c1ccc(OCC(O)CNCCOc2ccc(O)c(C(N)=O)c2)cc1 (stereo not drawn)	-7	-0.7	?	-0.4	11%	5	7.7	-1
CCOC(=O)CSc1nnc(-c2ccccc2)c(-c2ccccc2)n1	2	2.3	-1.5	-1.2	2%	1	8.2	-3
OCC1(CC2CCCCO2)CCN(Cc2ccccc2-c2ccco2)CC1 (stereo not drawn)	7	-4.8	3.8	1.5	1%	-19	2.9	-2
N#Cc1ccc(OCC(=O)OCCCOC(=O)COc2ccc(C#N)cc2)cc1	-14	-17	2.8	0.2	.	-3	-1.9	-1
Cc1cc(-c2ccc(C)c(S(=O)(=O)NCc3cccc(Br)c3)c2)on1	32	2.4	?	1.1	.	14	0.3	-1
Cc1ccc2nc(Cc3ccc(N)cc3)[nH]c2c1	-10	-3.5	1.7	-0.2	0%	-22	.	-5

Part of the list above in a different format.
| SMILES | T cruzi repl | LANA-H2B inh | RanGTP-Imp inh | A1 inh | Vif A3G | Calb FLC | AF4-AF9 inh | Beta apoptosis |
| --- | --- | --- | --- | --- | --- | --- | --- | --- |
| Cn1ccc(C(=O)OCC(=O)Nc2ccccc2Cl)n1 | 0 | . | 2.2 | . | . | 0 | -1.6 | . |
| CN1C(=O)c2ccc(C(=O)NCc3ccccc3)cc2C1=O | -17 | 5.2 | -1.5 | 0.2 | 1% | 0 | . | -1 |
| CCOC(=O)c1cn2nc(Oc3ccc(OC)cc3)ccc2n1 | -19 | -2.3 | 0.2 | -0.6 | -1% | -1 | . | -2 |
| CN(C)CCCn1c(SCC(=O)Nc2sc3c(c2C#N)CCCC3)nnc1-c1ccncc1 | -1 | 1.9 | 3.6 | -0.7 | 9% | 9 | -31 | 1 |

Further structures:
SMILES	T cruzi repl	LANA-H2B inh	RanGTP-Imp inh	A1 inh	Vif A3G	Calb FLC	AF4-AF9 inh	Beta apoptosis
O=C(NNC(=S)NCc1ccccc1)c1ccccc1OC(F)F	-1	-1.5	-2.4	0.6	5%	14	-3.0	-17
CC12CC3(C)CC(C)(C1)CC(C(=O)NC(=S)N1CCOCC1)(C2)C3	-13	0.6	?	0.6	?	44	7.6	2
CCOc1ccc(/C=N/NC(=O)c2cc3c(OC)cccc3[nH]2)cc1	-33	-0.7	-0.1	-2.0	-3%	3	-1.5	29
Cc1ccc(NC(=O)N2CCc3ccccc3C2)cc1	-7	-0.4	-0.7	0.3	6%	-13	.	-4
CC1(C)CC(NC(=O)c2cc(S(=O)(=O)N3CCOCC3)ccc2Cl)CC(C)(C)N1	.	0.7	.	0.1	.	.	-0.9	-2
CC(C)c1cc(CNC(=O)C2CCC(=O)N(Cc3ccccc3F)C2)on1 (stereo not drawn)	-9	1.9	1.4	-0.3	?	-3	-6.6	.
CC(C)CC(NC(=O)c1cccc(Cl)c1)C(=O)O (stereo not drawn)	-4	-6.2*	0.7	0.1	-2%	-3	-3.5	.
O=C(O)c1ccccc1SC1CC(=O)N(c2ccccc2)C1=O (stereo not drawn)	-14	5.4	1.6	-0.2	.	-4	.	-10
CCn1c(=N)n(CC(O)c2cccs2)c2ccccc21 (stereo not drawn)	-9	0.0	0.5	0.1	9%	-30	-2.2	6
COCC(=O)NCc1nc2ccccc2n1Cc1ccccc1F	-4	-1.9	0.4	0.9	-3%	2	.	1
CCOc1ccc(/C=C/C(=O)Nc2ccccc2C(F)(F)F)cc1	-16	0.9	-1.4	-3.2	.	5	.	-4
Cc1cc(C)nc(-n2ncc3c2CC(c2cccc(Cl)c2)CC3=O)n1 (stereo not drawn)	8	10	3.5	-0.2	-3%	23	-9.3	-12
N#Cc1c(-n2cccc2/C=N/O)sc2c1CCCC2	18	-11	-7.9	-0.8	2%	-22	.	5
COc1ccc(CCN2C(=O)CN=C2Nc2ccc(F)cc2)cc1OC	-14	-12	7.2	0.0	-11%	7	-0.2	-6
COc1ccc(N2CCN(c3cc(C)c4ccc(C)cc4n3)CC2)cc1	27	-3.2	2.1	0.3	-9%	12	6.3	1
CCCn1nc2ccccc2c1P(=N)(N1CCOCC1)N1CCOCC1	-5	-0.9	3.5	0.1	6%	2	.	-2
COc1ccc(CNC(=S)Nc2cc(C)cc(C)c2)cc1	-9	0.3	-0.4	-1.9	1%	-5	.	-1
CC(OC(=O)c1ccc2c(=O)n3c(nc2c1)CCCCC3)C(N)=O (stereo not drawn)	-18	3.4	0.0	0.5	0%	15	-0.4	5
O=C(NC1CCCc2ccccc21)c1ccccc1OC(F)F (stereo not drawn)	0	2.8	-1.6	?	.	2	-2.2	-7
NC(=O)c1ccc(NC(=O)CCCc2nc(-c3ccccc3Cl)no2)cc1	-11	-1.1	-4.4	0.6	-4%	-19	.	-1
CCCCNc1nc(N(C)c2ccccc2)nc(-n2ccnc2)n1	61*	-0.3	10	0.9	?	9	.	12
Cc1ccc(-c2nc(CC(=O)Nc3cccc(S(=O)(=O)NC4=NCCC4)c3)cs2)cc1	.	i	.	-0.8	0%	.	0.8	-5
O=C(NC1CC1)C1=C[C@H](c2ccc(C(F)(F)F)cc2)C[C@H](OCCCCO)O1	-24	-0.9	0.5	-0.5	.	-5	0.2	-3
O=c1oc2ccc3ccccc3c2cc1-c1nnc(-c2cccs2)o1	-31	.	114*	-0.6	8%	-15	.	-2
CC12CCC(C(=O)N3CCc4ccccc43)(CC1=O)C2(C)C (stereo not drawn)	-10	-0.8	-4.8	0.8	2%	-2	-2.3	4

(cont.)
SMILES	T cruzi repl	LANA-H2B inh	RanGTP-Imp inh	A1 inh	Vif A3G	Calb FLC	AF4-AF9 inh	Beta apoptosis
COc1ccc(-c2cc(=O)c3c(O)cc(O)cc3o2)cc1	.	3.9	.	-4.8	.	.	-3.1	-2
Cc1ccc(S(=O)(=O)NCC(=O)N2CCCC2C(=O)O)cc1 (stereo not drawn)	-3	-4.8	3.8	0.2	-11%	-3	-1.9	-2
CCOc1ccc(NC(=O)C(=O)NCc2ccncc2)cc1	8	4.2	-3.1	0.7	8%	-1	-1.5	-8
COc1ccccc1NC(=O)CSc1nnc(Cc2cccn2C)n1-c1ccc(F)cc1	7	.	-4.2	.	1%	-3	9.1	.
CCCCOc1ccccc1C(=O)N(Cc1ccc(C)o1)C1CCS(=O)(=O)C1 (stereo not drawn)	-1	-2.1	5.6	0.6	.	5	3.8	-7
O=C(Nc1cccc(F)c1)Nc1ccc2c(c1)C(=O)OC2	-4	3.4	-1.3	-1.4	3%	4	-3.1	-9
COc1cccc(-n2c(=S)[nH]c3c(oc4ccccc43)c2=O)c1	13	0.2	-1.9	-0.7	-14%	10	-16	0
Cc1ccccc1-c1nc(CS(=O)CC(=O)NCc2ccc3c(c2)OCO3)c(C)o1 (stereo not drawn)	25	-1.7	0.1	-1.4	4%	-28	0.3	-9
Cc1ccccc1C(=O)NC1CCN(CC(=O)Nc2ccc(N(C)C)cc2)CC1	2	-0.3	-0.4	0.4	-9%	-2	10.0	.
O=C(N/N=C/c1cc([N+](=O)[O-])c(N2CCOCC2)cc1N1CCOCC1)c1cccnc1	19	-0.5	3.8	-0.2	4%	-2	1.1	1
COc1cccc(/C=C(/C(=O)OCC(=O)NCC2CCCO2)c2ccccc2)c1 (stereo not drawn)	-3	-5.8	-1.7	-0.6	-8%	3	5.3	-2
O=C(Oc1ccccc1)c1cccc2cccc(C(=O)Oc3ccccc3)c12	5	.	1.0	.	.	-3	-8.4	.
O=C1CCC(c2ccccc2)(c2ccccc2)CC1	-6	4.3	?	0.2	-3%	.	-0.7	-3
CCc1nc2ccc(C(=O)N3CCN(c4ccccc4F)CC3)cc2nc1CC	15	2.1	3.1	-0.3	4%	44	-2.0	0
CC(=O)Nc1cccc(N=NN2CCOCC2)c1	-8	-1.5	1.6	0.5	5%	5	0.0	5
COc1ccc(/C=C(\NC(=O)c2ccccc2)C(=O)OCC2CCCN3CCCCC23)cc1OC (stereo not drawn)	23	0.5	-4.7	-0.4	.	2	-0.6	-1
COc1ccc(N(Cc2cc3cc(OC)ccc3[nH]c2=O)C(=O)C2CCCO2)cc1 (stereo not drawn)	2	2.5	-2.3	0.5	?	-2	.	-5
Cc1ccc(-c2nn(CC(=O)Nc3ccc4c(c3)nc3n4CCOC3)c(=O)c3ccccc23)cc1	-2	4.2	?	0.0	-6%	-13	.	4
CNC(=S)N/N=C(\C)c1ccc2c(c1)OCO2	-8	-3.1	0.4	-0.6	-15%	-1	-2.3	-3
